# Screening results as filed in PubChem BioAssay.
# Biofilm kill mix – clotrimazole potentiators killing C. albicans biofilm, primary screen, 4-compound mixtures | C. albicans biofilm persisters + clotrimazole, fluorescence viability; primary screen in compound mixtures of four per well | inhibition, % at 7.6 µM | 0.02% of 120,000 active | AID 1242, 2008;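 active = inhibition above 30.3% in the primary screen of four-compound pools, then above 30% when the compound was retested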;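 also: compounds exposed to preformed 24 h biofilms for 48 h; the number belongs to the whole pool; some results filed as inactive read as strong as hits; inactives centre near 12; 0% = biofilm with clotrimazole alone and 100% = kill control; retested singly at about 60 µM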
#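 Test system: C. albicans CAF4-2 wild-type biofilms; buffer or medium: RPMI/MOPS medium, pH 7.0; schedule: 24 h biofilm formation, then 48 h compound exposure, 37 °C; detection: Alamar Blue fluorescence; measure: percent inhibition of biofilm viability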
# Active calls of the source: *.
SMILES	Biofilm kill mix
CCN(Cc1cc(=O)n2cc(Cl)c(C)c(Cl)c2n1)Cc1nc2ccccc2c(=O)[nH]1	6.1
Cc1ccccc1Nc1nc(N)nc(COC(=O)CC2CC3CCC2C3)n1 (stereo unspecified)	17.2
CN1CCN(C(=O)Nc2ccc([N+](=O)[O-])cc2)CC1	9.8
OCCCc1n[nH]c(=S)n1-c1ccccc1	16.4
CNC(=S)N/N=C/c1c(C)cccc1Cl	22.9
CCn1c(CCNC(=O)c2ccc(OC)cc2)nnc1SCC(=O)Nc1ccccc1F	19.3
O=C(N/C(=C\c1cccnc1)c1nc2ccccc2[nH]1)c1cccc(Br)c1	15.6
CCC(C)(C(=O)NC1CCCC1)N(C)C(=O)c1ccccn1 (stereo unspecified)	12.3
CCOC(=O)C1(C)Oc2ccc(S(=O)(=O)CC)cc2NC1=O (stereo unspecified)	8.6
CNC(=O)CSc1nnc(-c2ccccc2)n1C	16.9
CCS(=O)(=O)N1Cc2ccccc2CC1C(=O)Nc1nc2ccccc2s1 (stereo unspecified)	13.6
COc1cc(OC)cc(C(=O)NNC(=O)Cc2ccc(OC)c(S(=O)(=O)N3CCOCC3)c2)c1	3.7
Cc1cc(NC(=O)CSc2ncnc3sccc23)no1	7.9
Cc1ccc(CCN2C(=O)CCC2(C)C(=O)NC2CCCC2)cc1 (stereo unspecified)	-0.7
Fc1ccc(Nc2nc3ccccc3s2)cc1	5.7
CSCC[C@H](NC(=O)OC(C)(C)C)C(=O)N/N=C/c1cccc2cccnc12	6.0
COc1cccc(NC(=O)C2CCCN(S(=O)(=O)c3cccc4nonc34)C2)c1 (stereo unspecified)	0.8
CC(C)(C)c1cccc(C2(O)C(=O)c3ccccc3C2=O)c1O	23.7
O=C(COc1cccnc1[N+](=O)[O-])N1CCc2ccccc2C1	8.6
C=C(CO)C1Cc2cc(C(C)=O)ccc2O1 (stereo unspecified)	24.6
COc1ccc(/C=C/C(=O)N2CCCC2)cc1OC	7.7
COc1ccccc1NC(=S)NCc1cccnc1	13.1
COc1ccc(C2C=C(C34CC5CC(CC(C5)C3)C4)NC(=S)N2)cc1 (stereo unspecified)	6.7
O=C(/C=C/c1cccc(Cl)c1)Nc1ncccn1	19.0

# 6 compounds picked at random from the list so far, as already listed:
SMILES	Biofilm kill mix
C=C(CO)C1Cc2cc(C(C)=O)ccc2O1 (stereo unspecified)	24.6
COc1cccc(NC(=O)C2CCCN(S(=O)(=O)c3cccc4nonc34)C2)c1 (stereo unspecified)	0.8
COc1ccc(C2C=C(C34CC5CC(CC(C5)C3)C4)NC(=S)N2)cc1 (stereo unspecified)	6.7
COc1ccccc1NC(=S)NCc1cccnc1	13.1
O=C(COc1cccnc1[N+](=O)[O-])N1CCc2ccccc2C1	8.6
COc1ccc(/C=C/C(=O)N2CCCC2)cc1OC	7.7

# (further entries)
SMILES	Biofilm kill mix
CC(=O)c1ccc(N2CCN(C(=S)Nc3ccccc3C(F)(F)F)CC2)cc1	10.2
c1ccc(N2CCN(Cc3cnc(N4CCOCC4)s3)CC2)cc1	11.9
CCNc1nc(NCC)nc(N/N=C(\C)c2ccc(OC)cc2)n1	9.6
CN(C)CCCn1c(SCC(=O)N2c3ccccc3Sc3ccccc32)nc2ccccc2c1=O	19.6
Cc1[nH][nH]c(=O)c1C(c1ccc(-c2ccc(C(=O)O)cc2)o1)c1c(C)[nH][nH]c1=O	12.0
COc1ccc(C(=O)N/C(=C\c2ccco2)C(=O)NCCCn2ccnc2)cc1	10.5
O=C(NNc1ccccc1F)c1ccccc1	22.5
Cc1cc(C)n2nc(C(=O)NNC(=O)c3ccc(Cl)cc3)nc2n1	21.8
CC(C)CC(=O)Nc1ccc(Oc2ccc(NC(=O)CC(C)C)cc2)cc1	11.9
COc1cc(/C=C2\SC(=Nc3c(C)n(C)n(-c4ccccc4)c3=O)NC2=O)ccc1O	6.8
O=C(/C=C/c1cccs1)Nc1ccc(N2CCOCC2)c(S(=O)(=O)Nc2cc(Cl)ccc2Cl)c1	16.5
COc1ccc(C(=O)N/N=C/c2sc(N3CCOCC3)nc2-c2ccccc2)cc1OC	4.6
CC(C)(C)c1cc[n+](CC(=O)Nc2cc(C(F)(F)F)ccc2N2CCOCC2)cc1	8.8
COCCN1CCc2[nH]c(=S)[nH]c(=O)c2C1	17.0
CC1(C)CC(=O)c2sc(NC(=O)C(C)(C)C)nc2C1	12.1
CCOC(=O)c1c(NC(=O)CN2C(=O)NC(C)(c3ccc(Cl)cc3)C2=O)sc(C(=O)NC)c1C (stereo unspecified)	13.3
COc1cccc2c(SCC(=O)N/N=C/c3ccc(O)cc3O)cc(C)nc12	9.2
CSCC(=O)Nc1ccc(F)c(Cl)c1	16.0
CCC1=C(OC(=O)N(CC)CC)N2C(=O)OC(=NCCc3c[nH]c4ccccc34)[C@]2(Cc2ccccc2)[C@H]2C1=CC[C@H]1C(=O)N(C)C(=O)[C@H]12	14.6
Cn1c(SCc2ccccn2)nc2c1c(=O)[nH]c(=O)n2C	11.3
C/C(=N\NC(=S)Nc1ccccc1C)c1cc2ccccc2o1	19.7
COc1cc(NC(=O)C(Cc2ccccc2)n2cccc2)cc(OC)c1 (stereo unspecified)	19.2
CCCCN(CCCC)C(=S)NC(=O)C(C)(C)C	11.1
CCOC(=O)/C(C#N)=C/C1=C(N2CCOCC2)CC(C)(C)OC1	27.0
COc1ccc(Nc2cc(C)nc3nc(C)nn23)c(OC)c1	15.8
CCC(NC(=O)c1ccccc1NC(=O)c1ccc(OC)cc1)C(=O)N1CCCC1 (stereo unspecified)	8.3
COC(=O)c1cc(-c2ccc(S(=O)(=O)N3CCCC(C)C3)cc2)c(C(F)(F)F)s1 (stereo unspecified)	14.8
COc1ccc(/C=N/NC(=O)c2ccc(Br)cc2)c(OC)c1	10.4
Cc1ccc(C)c(Cc2c(C)nc(C)[nH]c2=O)c1	13.3
O=C(NCC1CCCO1)C(Cc1ccccc1)N1C(=O)C2C3C=CC(C4CC34)C2C1=O (stereo unspecified)	10.2
Cc1c(C(=O)Nc2ccc(N3CCOCC3)cc2)cccc1[N+](=O)[O-]	0.4
Cn1c(SCC(=O)Nc2ccccc2)nnc1-c1ccc(NC(=O)CCc2ccccc2)cc1	17.5

# Continued:
structure	Biofilm kill mix
CC(C)Cc1cc(C(=O)Nc2cccc(O)c2)no1	15.3
O=C(COc1ccc(Cl)cc1)NCc1nnc2c3ccccc3c(-c3ccccc3)nn12	13.0
NC(=O)CSc1cn(Cc2ccccc2)c2ccccc12	3.8
COc1ccc(OC(C)C(=O)Nc2ccccc2C(F)(F)F)cc1 (stereo unspecified)	13.9
Cc1oc2c(c1C(=O)N1CCC(C)CC1)C(=O)c1ccccc1C2=O	7.5
COc1cccc(Nc2ccccc2C(=O)O)c1	8.4
CCOc1ncccc1C(=O)NCc1ccc(OC)c(OC)c1	5.8
CCOc1ccc(CC(=NCCO)C2=C(O)CC(C)(C)CC2=O)cc1OCC	11.2
N#Cc1c(-c2ccccc2)cc(-c2ccccc2)nc1Br	1.2
O=C(O)c1ccc(N=Nc2c(O)[nH]c3cc(Cl)ccc23)cc1	12.6
S=C(NC1CCCCC1)NN(c1ccccc1)c1ccccc1	-3.1
COc1cc(/C=N/Nc2ccccn2)cc(OC)c1O	18.5
Cc1ccc(NC(=O)/C(C#N)=C/c2cn(CC(=O)NCc3ccco3)c3ccccc23)cc1C	30.0
Nc1nc(SCC(=O)c2cc(F)ccc2F)n[nH]1	-15.2
O=C(CSc1ccccc1C(=O)NCc1ccccc1)NC12CC3CC(CC(C3)C1)C2	-1.5
CC(=O)C1=C(O)C(=O)N(Cc2cccnc2)C1c1ccc(C)cc1 (stereo unspecified)	-5.5
CCCC(=O)OC(C(=O)Nc1cc(C(F)(F)F)ccc1Cl)c1ccccc1 (stereo unspecified)	11.4
COc1ccc2oc(=O)c(C(=O)Nc3ccccc3O)cc2c1	37.9
COc1cc(N=c2c([N+](=O)[O-])nn(-c3ccc4c(c3)OCCO4)n2O)cc(OC)c1	14.5
CCC(=O)c1c(NCCc2ccccc2)cc(C)oc1=O	15.5
COC(=O)C1=C(C)N(Cc2ccc(C)cc2)C(=O)/C1=C\c1cc(OC)c(OC)c(OC)c1	11.7
CC(C)(C)Sc1ccc2nc3c(n2c1)CCCC3	11.4
CCc1ccc(OCc2nnc(SCc3ccc(C(=O)O)cc3)o2)cc1	15.2
CN1/C(=C\C(=O)Nc2ccc(F)cc2)C(C)(C)c2ccccc21	4.2
COC(=O)c1c(NC(=O)/C=C/C(=O)O)sc(Cc2ccccc2)c1C	6.1
Cc1cccc(C)c1Nc1nnc(SCC(=O)Nc2cc(S(=O)(=O)N3CCCCC3)ccc2Cl)s1	9.4
CCc1cc2c(=O)c(-c3ccc4c(c3)OCCO4)coc2cc1OS(C)(=O)=O	1.4
OCC1(Cc2cccc(C(F)(F)F)c2)CCN(Cc2cc(F)cc(F)c2)CC1	-13.0
COc1ccc(/C=C/C(=O)Nc2ccccc2Cl)cc1S(=O)(=O)N1CCOCC1	23.6
COc1ccc(-c2c3c(=O)n(C)c(=O)n(C)c3cn2-c2ccc(O)cc2)cc1	7.5
C=CCn1c(N)cc(=O)nc1SCC(=O)Nc1ccc2ccccc2c1	15.2
O=C(Nc1ccccc1)c1ccc(=O)n(Cc2cccc(Cl)c2)c1	18.1
O=C(Cc1ccc(Cl)cc1)NNC(=S)NC(=O)c1cccs1	17.5
CCCSc1ccc2nc(NC(=O)OC)[nH]c2c1	-7.3
CC(C)c1ccc(-c2nnc(N)s2)cc1	10.1
Nc1cc(Cl)ccc1C(=O)OCC(=O)NC(=O)NCc1ccccc1	6.9
C=CCNc1nc(C(=O)OCC)nc2ccccc12	20.5
COc1cccc(-c2nc(SCC(=O)Nc3nc(-c4ccccc4)c(C)s3)[nH]c(=O)c2C#N)c1	10.3
COc1cc(C(=O)NC(=S)NNC(=O)c2cnccn2)cc(OC)c1OC	21.1
COc1cc(C2NCC(c3ccc(Cl)cc3Cl)c3c2[nH]c2ccccc32)cc(OC)c1OC (stereo unspecified)	9.7
Cc1nc2cccnc2nc1C	19.9
Cc1occc1C(=O)NNC(=O)Nc1ccc([N+](=O)[O-])cc1	3.6
O=C(O)c1cc2nc3c(c(C(F)(F)F)n2n1)CCCC3	-2.8
COc1ccc(NS(=O)(=O)c2ccc(O)c(NC(=O)c3cc4c(C)nn(-c5ccc(F)cc5)c4s3)c2)cc1	19.0
CN(C)C(=O)COC(=O)c1ccccc1Sc1ccccc1C#N	7.3
O=C(c1cccs1)N1CCC(Cc2ccccc2)CC1	12.1
CCCC(=O)NNc1c2ccccc2nc2ccccc12	19.3
Cc1cc(C)n(CCNC(=O)c2cc(COc3c(F)cccc3F)on2)n1	17.6
COc1cccc(-n2cnc3sc4c(c3c2=O)CCC4)c1	24.8
Cc1ccc(C)c(SCC(=O)NC(=O)Nc2ccc3c(c2)OCCO3)c1	4.5
CN(C)S(=O)(=O)c1cccc(COC(=O)c2ccc3c(c2)OCO3)c1	15.8
Cc1ccc(N/C=C/C(=O)c2cccs2)cc1	-2.4
C=CCn1cnc2c(nnn2Cc2ccc(F)cc2)c1=O	2.8
Cc1ccc(S(=O)(=O)Nc2nc3ccccc3nc2NCC2CCCO2)cc1 (stereo unspecified)	18.0
N#C/C(=C\c1ccc(-c2ccccc2Cl)o1)C(=O)Nc1nc2ccccc2s1	14.2
Cc1ccc(S(=O)(=O)Nn2cnnc2)cc1	14.7
CC1CCN(c2nc(-c3cccnc3)nc3scc(-c4ccccc4)c23)CC1	24.4
O=C(c1ccc2c(=O)n(-c3ccccc3)c(=S)[nH]c2c1)N1CCCCC1	12.6
Cc1nn2c(NCCOCCO)c3c(nc2c1-c1ccccc1)CCC3	21.3
O=C(NCc1ccco1)C1CC(c2ccccc2C(F)(F)F)=NO1 (stereo unspecified)	14.5

# Other entries:
structure	Biofilm kill mix
COc1ccc(/C=C/c2nc(-c3ccccc3O)n[nH]2)cc1	4.0
Brc1ccc(-c2n(-c3ccccn3)c3ccccc3[n+]2-c2ccccn2)cc1	15.6
O=C(CC(=O)NC1CCCCC1)N/N=C/c1ccccc1F	-6.1
CC(Cl)C(=O)NC(=O)NC12CC3CC(CC(C3)C1)C2 (stereo unspecified)	14.5
O=C(COC(=O)c1c2c(nc3ccccc13)/C(=C/c1ccco1)CC2)NC1CCCC1	13.0
O=C(NNC(=O)C1CCN(Cc2ccc(Cl)c(Cl)c2)CC1)c1cccs1	13.7
CC(C)c1nnc(NC(=O)c2cccc(NC(=O)C(F)(F)F)c2)s1	15.4
CCn1ncc([N+](=O)[O-])c1C(=O)n1nc(C)cc1C	19.3
COc1ccccc1/C=C/C(=O)Nc1ccc(N2CCOCC2)cc1	4.0
O=C(Nc1ccc(-c2nc3cccnc3s2)cc1)c1ccc(Cl)nc1	20.9
Cc1nn(C(=O)c2ccco2)c(C)c1Sc1ccc(Cl)cc1	13.5
CC(=O)c1ccc(Sc2ccc(C(C)=O)cc2)cc1	-12.9
O=c1c2sccc2nc(SCc2cc(=O)n3cc(Cl)ccc3n2)n1Cc1ccccn1	23.4
CC(=O)c1nnn(-c2ccc(F)cc2F)c1C	18.8
COc1cc(C(=O)OCCc2c(C)nc3nc[nH]n3c2=O)cc(OC)c1OC	14.3
CCN1CCCC1CN(Cc1cc2ccc(C)cc2[nH]c1=O)C(=S)Nc1ccc(OC)cc1OC (stereo unspecified)	11.9
Cc1c(CCO)c(=O)n(-c2ccccc2)n1S(=O)(=O)c1ccc([N+](=O)[O-])cc1	8.3
NC(=O)C1CCN(C(=O)/C=C/c2ccccc2[N+](=O)[O-])CC1	14.1
CCOC(=O)C1=C(C)NC(=S)NC1c1ccc(C)s1 (stereo unspecified)	5.4

# A portion of the library; the hit share may differ from the screen's.
